KCNQ2 pot: KCNQ2 (rat) channel potentiation. hit rate 0.54% among 310,000. AID 2239. CHO-K1 KCNQ2, FluxOR thallium flux fluorescence; active compounds read high. B-score at 10 µM. O88943;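 active = fluorescence ratio B-score at least 3 SD of library B-scores, with initial fluorescence B-score within 3 SD, cut at about 5.3 in these data; same plate scores as AID 2156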;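 also: B-score of peak minus minimum over baseline fluorescence ratio after K+ and Tl+ stimulus; positive B-score means potentiation of KCNQ2 with more thallium influx and brighter signal; only the inactives scoring about 0 or higher are listed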
Target sequence (O88943 whole entry, looked up): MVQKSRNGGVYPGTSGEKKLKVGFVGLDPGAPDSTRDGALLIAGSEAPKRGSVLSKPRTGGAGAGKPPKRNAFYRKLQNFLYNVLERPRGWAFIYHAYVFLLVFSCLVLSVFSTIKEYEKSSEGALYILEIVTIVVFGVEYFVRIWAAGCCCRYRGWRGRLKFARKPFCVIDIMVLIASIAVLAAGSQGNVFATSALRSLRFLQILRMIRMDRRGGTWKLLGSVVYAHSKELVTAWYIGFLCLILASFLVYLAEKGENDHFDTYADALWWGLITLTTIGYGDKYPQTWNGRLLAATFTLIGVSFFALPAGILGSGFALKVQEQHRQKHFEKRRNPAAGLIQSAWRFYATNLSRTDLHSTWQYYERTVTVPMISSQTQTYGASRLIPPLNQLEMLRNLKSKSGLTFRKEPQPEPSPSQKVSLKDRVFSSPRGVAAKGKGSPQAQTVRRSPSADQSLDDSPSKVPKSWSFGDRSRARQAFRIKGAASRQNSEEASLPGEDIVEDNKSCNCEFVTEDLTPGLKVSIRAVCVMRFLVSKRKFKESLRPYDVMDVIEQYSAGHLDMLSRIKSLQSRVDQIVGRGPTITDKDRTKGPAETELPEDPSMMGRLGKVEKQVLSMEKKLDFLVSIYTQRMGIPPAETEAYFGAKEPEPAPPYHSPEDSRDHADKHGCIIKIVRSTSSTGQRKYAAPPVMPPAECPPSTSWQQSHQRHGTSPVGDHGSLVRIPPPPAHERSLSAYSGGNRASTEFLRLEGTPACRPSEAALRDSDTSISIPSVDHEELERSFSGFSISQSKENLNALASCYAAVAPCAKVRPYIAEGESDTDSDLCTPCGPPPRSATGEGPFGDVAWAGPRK
KCNQ2 pot baseline: also measured in KCNQ2 pot; calls as there; B-score; compound at 10 µM; measured here: initial fluorescence intensity artifact check;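 brightness before thallium and not channel activity; 0 = typical well and far values either way flag optical interference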
* hit, by the source's call.

Every second line gives: KCNQ2 pot	KCNQ2 pot baseline
CCOc1ccc(-c2c(=O)n(OCc3ccc([N+](=O)[O-])cc3)c3ccccc3[n+]2[O-])c(OCC)c1
→ 1.1	-1.2
O=C(Nc1nnc(S(=O)(=O)N2CCCCCC2)s1)c1ccc(Br)cc1
→ 2	-0.97
Cc1ccc(CC2CC(=O)N(c3ccc4c(c3)OCCO4)C2=O)cc1 (stereo unspecified)
→ 0.06	-0.09
CC(CCc1ccco1)NC(=O)CCc1nnc2ccc(NCc3ccc(Cl)cc3)nn12 (stereo unspecified)
→ 1.7	-2.1
CC(=O)CSc1nc2c(c(=O)[nH]c(=O)n2C)n1Cc1cccc(Br)c1
→ 2.1	-0.56
COC(=O)CSc1nc(C)cc(Oc2ccccc2)n1
→ 1.1	-2.2
CC(=O)Nc1cccc(-c2nc3ccccc3o2)c1
→ 1.3	-1.7
CCOc1ccc(N2CC(C(=O)Nc3ccc(S(=O)(=O)N4CCCC4)cc3)CC2=O)cc1 (stereo unspecified)
→ 0.01	0.2
Cn1c(O)c(C2=c3ccccc3=NC2=O)[nH]c1=S
→ 1.9	0.46
COC(=O)c1ccccc1NC(=O)CCC(=O)N1CC(C)Oc2ccc(C)cc21 (stereo unspecified)
→ 0.19	0.34
COC(C(=O)Nc1ccnn1C1CCN(Cc2cnn(C(C)C)c2)CC1)c1ccccc1 (stereo unspecified)
→ 0.22	0.08
COc1ccc2c(c1)c1ncn(Cc3ccc(F)cc3)c(=O)c1n2C
→ 0.2	-0.28
CCOC(=O)CSc1nc(C)c(CC)c(C)c1C(N)=O
→ 0.27	-0.45
CN(C)/C=C/c1onc(-c2c(Cl)cccc2Cl)c1C#N
→ 0.66	0.17
CC1=NNC(=O)C1C(c1ccccc1)C1C(=O)NN=C1C (stereo unspecified)
→ 0.42	0.88
CCN1CCN(Cc2ccc(NC(=O)c3ccc(C)c(NC(=O)c4c[nH]c5cc(C(F)(F)F)ccc5c4=O)c3)cc2C(F)(F)F)CC1
→ 0.16	0.56
COC(=O)c1ccc(C(C(=O)NC2CCCCC2)N(CCc2ccccc2)C(=O)Cc2cccs2)cc1 (stereo unspecified)
→ 0.58	0.77
COc1ccc(/C=N/n2c(C)nnc2C)c(OC)c1
→ 0.14	0.56
CCOC(=O)COc1ccc2c(c1)C(=O)CC1(CCN(C(C)=O)CC1)O2
→ 0.55	-0.22
CC(=O)N1CCc2cc(S(=O)(=O)NCCC(=O)N3CCN(c4ccccn4)CC3)ccc21
→ 1.4	-0.19
CCCS(=O)(=O)N1CCC(C(=O)N2CCc3ccccc3C2)CC1
→ 2.4	-0.25
CCOc1cc(C(=O)O)ccc1OCCOc1ccccc1
→ 0.86	-0.25
Cc1cc(C)cc(N(CCC#N)C(=O)COC(=O)CNC(=O)c2sc3ccccc3c2Cl)c1
→ 0.39	0.07
Cc1c(O)c2cccnc2[nH]c1=O
→ 1.3	-0.47
O=C(COC(=O)CNC(=O)c1ccccc1)Nc1nc(-c2ccccc2)cs1
→ 0.32	-0.4
CCOc1ccc(C(=S)N2CCCC2)c(OCC)c1
→ 0.46	-0.1
CS(=O)(=O)NCCCCCCNS(C)(=O)=O
→ 0.02	-2.7
COCCN(C(=S)Nc1ccc(OC)cc1)C1CCN(C(C)=O)CC1
→ 0.04	0.4
C/C(CC(=O)Nc1cc(Cl)ccc1C)=N\NC(=O)C(=O)N1CCCC1
→ 0.05	0.58
Cc1ccc(C(=O)NCCCC(=O)O)o1
→ 1.2	-0.68
Cc1cc(C)n2cc(CSc3nc4ccccc4[nH]3)nc2n1
→ 0.9	0.16
Cc1cc2oc(=O)cc(Cn3ccnc3)c2cc1O
→ 2	1.1
O=C(CSc1n[nH]c(-c2cccnc2)n1)OC1CCCCC1
→ 0.27	-0.9
COC(=O)c1ccccc1NC(=O)Nc1cc(C)ccn1
→ 1.9	2
CCN(CC)S(=O)(=O)c1ccc(C(=O)NNC(=O)c2csc(N3CCOCC3)n2)cc1
→ 0.49	1.5
Cc1ccc(S(=O)(=O)NNC(=O)c2ccncc2)cc1
→ 0.61	1.3
O=S(=O)(Cc1ccccc1)Cc1cnc(Cl)s1
→ 0.08	-0.45
O=C(c1ccco1)N1CCN(S(=O)(=O)c2ccc(Cl)cc2)CC1
→ 0.53	-1.6
COc1ccc(NC(=O)COC(=O)c2ccc(OCc3ccc(Cl)cc3Cl)c(OC)c2)c(OC)c1
→ 0.03	-0.04
CCN1CCN(C(=S)Nc2ccc(Cl)c(Cl)c2)CC1
→ 0.9	-0.64
Cc1[nH][nH]c(=O)c1C(c1cc([N+](=O)[O-])ccc1O)c1c(C)[nH][nH]c1=O
→ 0.64	-1.3
Cc1cc(Nc2cccc(Cl)c2Cl)n2ncnc2n1
→ 0.63	0.79
Cc1ccc(NC(=S)N2CCN(c3ncccn3)CC2)c(C)c1
→ 1.1	0.01
COC(=O)c1ccc(C(=O)OC)c(NS(=O)(=O)c2ccc(NC(C)=O)cc2)c1
→ 0.13	0.97
Cc1nn(C)c(C(=O)Nc2ccc(Cn3cccn3)cc2)c1[N+](=O)[O-]
→ 1.4	-0.11
CC(C)c1c(C(=O)N/N=C/c2ccoc2)nnn1-c1nonc1N
→ 0.01	3.6
O=C(COC(=O)c1cncc(Br)c1)NC1CCCCC1
→ 0.01	1.5
CC1=CC2=NC(=O)/C(=C/c3cccs3)C(=N)N2O1
→ 0.15	-0.37
CC(C)[C@@H](C(=O)N1CCNCC1)n1cc(CCO)nn1
→ 0.69	1.7
COC(=O)c1c(NC(=O)C(C)C)sc(C(=O)N2CCOCC2)c1C
→ 1.7	0.31

Later entries
Every second line gives: KCNQ2 pot	KCNQ2 pot baseline
CCN(CC(=O)NCc1cccs1)S(=O)(=O)c1ccc(NC(C)=O)cc1
→ 1.3	1.3
O=C1CC(c2ccccc2)Cc2nc(N3CCc4ccccc43)ncc21 (stereo unspecified)
→ 0.4	-0.03
CCN(CC)C(=O)/C(=C\c1ccncc1)NC(=O)c1ccccc1
→ 1.2	-0.46
CN1CCCc2cc(C#N)c(=O)[nH]c21
→ 0.53	0.99
Cc1ccc(C(=O)OCC(=O)NC2CCCC2)cc1
→ 1.1	-0.31
O=C(NCCC1=CCCCC1)C(=O)NCC1OCCCN1S(=O)(=O)c1cc(F)ccc1F (stereo unspecified)
→ 0.54	1.1
O=C(Nc1ccc(Cl)cc1)C1CC2CCCC(C1)C2=O (stereo unspecified)
→ 0.62	1.7
COc1ccc(/C=C/C(=O)NC2CCCCC2C)cc1 (stereo unspecified)
→ 0.23	0.01
COC(=O)c1cc2occc2n1CC(=O)Nc1ccc(OC)c(OC)c1
→ 0.11	-0.54
COC(=O)c1ccccc1NC(=S)N(Cc1ccc2c(c1)OCO2)Cc1cc2ccc(C)cc2[nH]c1=O
→ 0.01	1.1
Cc1ccc(C2NC(C(=O)O)CS2)cc1 (stereo unspecified)
→ 1.6	-0.22
CC1=C(C(=O)Nc2ccc(C)cc2C)C(c2ccc(C)o2)NC(=O)N1 (stereo unspecified)
→ 0.01	-0.04
CC1=NC(C)(C)Cc2cc(C)c(C)cc21
→ 1.6	0
Cc1ccc(-c2nnc(N(C)C(=O)c3cccnc3)s2)cn1
→ 0.1	2.4
Cc1ccc(-c2nn[nH]n2)o1
→ 0.41	-0.12
O=C(Nc1ccc(N2CCOCC2)c(Cl)c1)c1ccc(Cl)cc1
→ 2.7	0.26
O=C(COc1ccc(Cl)cc1)NNC(=O)c1ccc2c(=O)n3c(nc2c1)CCC3
→ 0.23	-0.67
COc1ccc2[nH]c3c(=O)n(CCCCCC(=O)NCCC(C)C)c(=S)[nH]c3c2c1
→ 0.27	-0.52
CC(C)NC(=O)COC(=O)c1cncc(Br)c1
→ 1.7	0.05
O=C1NC(c2ccccc2)Oc2ccccc21 (stereo unspecified)
→ 2	0.04
Cc1ccc(C(=O)OCC(=O)NC(=O)Cc2ccccc2)c(O)c1
→ 0.49	-0.42
COCCCNS(=O)(=O)c1ccc2c3c(cccc13)C(=O)S2
→ 1.4	-0.01
O=C(C1CC1)N1CCN(c2nc3ccccc3s2)CC1
→ 1.7	-0.08
CCOC(=O)C1(CC2CCCCO2)CCN(Cc2ccc(OC)cc2F)CC1 (stereo unspecified)
→ 1.3	0.44
O=C(N(c1ccccc1)c1ccccc1)n1ccnc1
→ 0.1	-0.58
CC1=C(C(=O)N2CCOCC2)C(c2cc(C)cs2)NC(=O)N1 (stereo unspecified)
→ 1.6	-0.34
CC(C)CCNC(=O)c1cc(S(=O)(=O)N2CCCCC2)ccc1N1CCOCC1
→ 0.25	1.7
CCCC(=O)Nc1cc(C(=O)O)ccc1S(=O)(=O)c1ccc(C)cc1
→ 0.79	-0.67
O=C(Nc1cccc(F)c1)c1cccnc1N1CCOCC1
→ 1.3	-0.13
COc1ccc(NC(=O)CSc2nc(NS(=O)(=O)c3ccc(C)cc3)cc(=O)[nH]2)cc1
→ 3.8	0.85
O=C(O)c1ccccc1-c1ccccc1C(=O)Nc1ccccc1Br
→ 0.4	0.17
Cn1cccc1C(=O)c1cccc([N+](=O)[O-])c1
→ 0.24	-0.87
COc1cc(NC(=O)c2cccs2)cc(OC)c1
→ 6.6*	1.2*
CCC(C)(C)C1CCC2(CC1)NC(=O)N(CC(=O)Nc1nc(-c3ccc(C)cc3)cs1)C2=O (stereo unspecified)
→ 1.1	-1.4
O=S(=O)(c1cnc[nH]1)N1CCN(c2ccc(Cl)cc2)CC1
→ 0.37	-0.62
OCCSc1nc(-c2ccccc2)nc2ccc(F)cc12
→ 0.13	-0.39
O=C(CSc1nnc2ccc(-c3ccc(F)cc3)nn12)NCC1CCCO1 (stereo unspecified)
→ 2.1	-1.5
COCCCN(C(=O)CSCc1c(C)noc1C)c1c(N)n(Cc2ccccc2)c(=O)[nH]c1=O
→ 0.62	1.1
COC(=O)CSc1nnc(-c2ccco2)o1
→ 1.4	-1.7
Cc1cnc(C(=O)Nc2cccc(S(=O)(=O)N(C)C)c2)cn1
→ 0.11	-0.56
O=C(Cc1ccccc1)N1CCN(C(=O)c2ccco2)CC1
→ 0.23	0.56
CN(c1ccc(OCC(=O)OCC(=O)NCc2ccco2)cc1)S(=O)(=O)c1ccc2ccccc2c1
→ 0.59	0.91
CCOc1ccc2[nH]c3c(N4CCN(c5ccccn5)CC4)ncnc3c2c1
→ 0.15	-0.81
COc1ccc(C)cc1S(=O)(=O)Nc1ccccc1
→ 1.1	-3.6
CCCS(=O)(=O)N1CCCC(C(=O)NCC2CCCO2)C1 (stereo unspecified)
→ 0.92	0.03
CCc1cc(C(=O)NCCN(C)C)cs1
→ 1.8	0.28
O=C(NCC1CCCO1)/C(=C\c1cccc([N+](=O)[O-])c1)NC(=O)c1ccccc1 (stereo unspecified)
→ 1.3	-1.7
COc1cc(/C=C2\S/C(=N/S(=O)(=O)Cc3ccccc3)NC2=O)c([N+](=O)[O-])cc1OC
→ 0.78	-1.2
Cc1sc2ncnc(SCC(=O)c3ccc(Cl)s3)c2c1C
→ 3.4	-0.73
OCCn1ccc(-c2ccccc2OCc2ccc(F)cc2)n1
→ 0.48	0

A portion from further up, as a working copy:
Every second line gives: KCNQ2 pot	KCNQ2 pot baseline
CCCS(=O)(=O)N1CCCC(C(=O)NCC2CCCO2)C1 (stereo unspecified)
→ 0.92	0.03
CCc1cc(C(=O)NCCN(C)C)cs1
→ 1.8	0.28
O=C(NCC1CCCO1)/C(=C\c1cccc([N+](=O)[O-])c1)NC(=O)c1ccccc1 (stereo unspecified)
→ 1.3	-1.7
COc1cc(/C=C2\S/C(=N/S(=O)(=O)Cc3ccccc3)NC2=O)c([N+](=O)[O-])cc1OC
→ 0.78	-1.2
Cc1sc2ncnc(SCC(=O)c3ccc(Cl)s3)c2c1C
→ 3.4	-0.73
OCCn1ccc(-c2ccccc2OCc2ccc(F)cc2)n1
→ 0.48	0

(list continues)
Every second line gives: KCNQ2 pot	KCNQ2 pot baseline
CCOC(=O)CNc1nnc(SCC(=O)OCC)[nH]c1=O
→ 2.2	-0.69
CC(C(=O)NCC1CCCCC1)N1CCN(S(=O)(=O)c2ccccc2F)CC1 (stereo unspecified)
→ 0.27	-0.27
O=C(Cn1nc(C(=O)O)c2ccccc2c1=O)Nc1ccc(F)cc1
→ 0.98	-3.9
COc1ccc(NC(=O)CN2CCN(c3ccccn3)CC2)cc1Cl
→ 0.2	-0.77
Cc1ccccc1N1CC(c2nc3ccccc3[nH]2)CC1=O (stereo unspecified)
→ 0.9	-0.07
Cc1ccc(NC(=O)NCCN2C(=O)C3C4C=CC(C4)C3C2=O)cc1 (stereo unspecified)
→ 1.7	-0.92
O=C(O)C1CCN(Cc2cnn(-c3ccccc3)c2-n2cccc2)CC1
→ 1.1	1.4
NC1=NC2(CCCC2)n2c(nc3ccccc32)N1
→ 1	-0.44
CCN(Cc1ccccc1)C(c1cc2cc(C)ccc2[nH]c1=O)c1nnnn1CCOC (stereo unspecified)
→ 1.2	0.12
CC(=O)OC(C(=O)Nc1nccs1)c1ccccc1 (stereo unspecified)
→ 0.36	1.1
Cn1cc(Br)c(C(=O)N/N=C/c2cccc(OC3CSC3)c2)n1
→ 0.32	-2.2
CCOc1ccccc1N1CCN(S(=O)(=O)c2cc(C)ccc2OC)CC1
→ 0.19	-0.04
COC(=O)c1cc2c(C)[nH]c(C)c2cc(C(=O)OC)c1=O
→ 0.11	-0.85
CC(C)CN(C(=O)CCCOc1ccc(Cl)cc1Cl)c1c(N)n(Cc2ccccc2)c(=O)[nH]c1=O
→ 0.08	-0.91
O=C(CCc1ccccc1)NNC(=O)c1ccccc1Br
→ 0.11	1.3
CC(C)(C)c1ccc(C(=O)NCCC(=O)N2CCCC2)cc1
→ 2.4	-2.3
CCOC(=O)CSc1nc2cc(C(=O)NCc3ccco3)ccc2c(=O)n1-c1ccc(F)cc1
→ 0.22	-0.45
CCN(CC)S(=O)(=O)c1ccc(OC)c(NC(=O)c2cccs2)c1
→ 2	-0.03
CCOC(=O)Cn1c2[n+](c3ccccc31)CC(O)CS2 (stereo unspecified)
→ 0.13	0.36

Assay outcomes as filed in PubChem.

Only part of the results is shown; rates above refer to the full screens.
